Cruzain Triton: inhibitors of Trypanosoma cruzi cruzain with detergent; P25779; purified cruzain, Z-FR-AMC fluorescence, 0.01% Triton; Potency, µM, for the others: max response, negative = inhibition, hits mostly inhibitors; 200,000 compounds, 0.43% hits;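 further: plate controls were neutral wells for no effect and buffer without enzyme for full effect; nearly all actives have a fitted effect of over 40% in size; top concentration of the series not given in the record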
Target sequence (P25779 123-467 limits assumed): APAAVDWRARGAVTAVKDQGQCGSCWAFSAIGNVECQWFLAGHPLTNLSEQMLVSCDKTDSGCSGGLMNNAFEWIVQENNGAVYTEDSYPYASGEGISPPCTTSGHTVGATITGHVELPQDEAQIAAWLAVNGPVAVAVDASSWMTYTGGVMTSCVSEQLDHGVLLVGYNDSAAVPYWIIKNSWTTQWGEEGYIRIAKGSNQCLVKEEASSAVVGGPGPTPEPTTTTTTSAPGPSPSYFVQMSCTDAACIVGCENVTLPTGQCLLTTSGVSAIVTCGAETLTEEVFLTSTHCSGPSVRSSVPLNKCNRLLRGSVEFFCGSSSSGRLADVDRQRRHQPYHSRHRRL
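15 min RT preincubation of 1.5 nM cruzain with compound, then 2 uM Z-FR-AMC added; kinetic AMC fluorescence, 60 s delta. Triton X-100 0.01%, pH 5.5.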
SARS PLP yeast: SARS-CoV PLP inhibition in yeast; S. cerevisiae expressing SARS-CoV PLpro, growth rescue; control for the full effect not named in the record; Potency, µM (series often up to 32.9 µM), for inactives: at the top dose activity, positive = growth rescue; 330,000 compounds, 0.19% hits; active means well fitted rising curve with a large enough effect; inconclusive means small, poorly fitted or top-dose-only effect; inactive means no such curve, though single readings can be large or run the other way; further: 0% is about no effect; nearly all actives have a fitted effect of over 55% in size; growth read by luminescence after 48 h
Marburg entry inh: blocks Marburg virus binding to or entry into cells | Marburg virus pseudotyped entry inhibition, cell reporter; control for the full effect not named in the record; about a third of the inactives were read at about 46 µM | Potency, µM (doses to about 37.8 µM), for inactives: at the highest dose activity change, negative = inhibition, most hits filed as inhibitors | 300,000 compounds, 1.8% hits; active = well fitted inhibition curve with a large enough effect; inconclusive = small, poorly fitted or top-dose-only effect, or effect the other way; inactive = flat fitted curve, though single readings scatter; tested in HEK293 cells; about a fifth of its hits are not listed in these tables; further: on the % scale 0 is the no-effect control and ±100 the full control effect; luciferase read-out
NS1 function inh: inhibitors of influenza NS1 protein function | S. cerevisiae slowed by influenza A NS1, growth recovery by OD600 | Potency, µM (titrated, usually from 46.1 µM), for inactives: top-dose activity, positive = more growth | 270,000 compounds, 0.4% hits | AID 2326; active means well fitted rising curve with a large enough effect; inconclusive means small, poorly fitted or top-dose-only effect; inactive means no such curve, though single readings can be large or run the other way; further: nearly all actives have a fitted effect of over 50% in size
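Growth recovery, yeast-based: influenza A NS1 expressed in S. cerevisiae causes slow growth, and suppressors are detected by OD600. The parent strain without NS1 is used as positive control.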
Cruzain inh noDet: inhibitors of Trypanosoma cruzi cruzain without detergent. P25779. purified cruzain, Z-FR-AMC fluorescence, no detergent. Potency, µM, inactives show max response, negative = inhibition, most hits filed as inhibitors. 200,000 compounds, 2.3% hits. AID 1476;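 further: plate controls were enzyme without inhibitor for no effect and buffer without enzyme for full effect; nearly all actives have a fitted effect of over 40% in size; top concentration of the series not given in the record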
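Detergent-free condition (0.00005% Triton X-100) in acetate buffer pH 5.5 with DTT. 1.5 nM enzyme and compound were pre-mixed 15 min, then 2 uM Z-FR-AMC substrate added; reaction progress from fluorescence change between first and third reads (60 s).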
StopGo reporter: lowers the luciferase signal of an FMDV 2A StopGo reporter; human cells with a luciferase reporter of 2A StopGo recoding; control for the full effect not named in the record; Potency, µM (top dose mostly 57.9 µM), inactives show top-dose signal change, negative = less light; 410,000 compounds, 1.2% hits; active = well fitted falling curve with a large enough effect; inconclusive = small, poorly fitted or top-dose-only effect; inactive = no such curve, though single readings can be large or run the other way; tested in HEK293T cells; further: on the % scale 0 is the no-effect control and ±100 the full control effect; nearly all actives have a fitted effect of over 45% in size; luciferase light after 4 h
Lassa entry inh: blocks Lassa virus binding to or entry into cells. Lassa virus pseudotype entry inhibition, cell reporter; control for the full effect not named in the record. AID 540256. Potency, µM (doses to about 37.9 µM), for the others: top-dose activity change, negative = inhibition, hits mostly inhibitors. 300,000 compounds, 1.2% hits; active means well fitted inhibition curve with a large enough effect; inconclusive means small, poorly fitted or top-dose-only effect, or effect the other way; inactive means flat fitted curve, though single readings scatter; tested in HEK293 cells; further: on the % scale 0 is the no-effect control and ±100 the full control effect; nearly all actives have a fitted effect of over 50% in size; luciferase read-out
RE007 growth inh: less growth of the S. pombe RE007 Vpr strain; S. pombe RE007 Vpr strain, BacTiter-Glo ATP luminescence, 24 h; control for the full effect not named in the record; Potency, µM (doses to about 92.2 µM), for inactives: at the top dose activity change, negative = less growth; 360,000 compounds, 0.21% hits; active = well fitted falling curve with a large enough effect; inconclusive = small, poorly fitted or top-dose-only effect; inactive = no such curve, though single readings can be large or run the other way;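 further: on the % scale 0 is the no-effect control and ±100 the full control effect; nearly all actives have a fitted effect of over 50% in size; the assay follows cell death caused by Vpr and the record does not say whether a fall means rescue or toxicity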
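Fission yeast strain RE007, carrying one chromosomally integrated HIV-1 vpr copy, was seeded at OD 0.01 in PMG+AL medium with 23 nL pinned compound. After 24 h at 30 °C and 99% humidity, viability was read by BacTiter-Glo luminescence.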
The depositor's hits bear a star; ? = inconclusive; · = not tested or not shown; & = joins results of further samples; [ ] = dose if it differs, or a comment. Unless noted, the call rests on the fitted dose curve; in most records, active means well fitted curve in the direction sought with a large enough effect; inconclusive means small, poorly fitted or top-dose-only effect, or another doubt; inactive means no such curve, though single readings can be large; an effect the other way counts as inactive or inconclusive. Potency means the concentration at half of the fitted maximal effect.

SMILES	Cruzain Triton	SARS PLP yeast	Marburg entry inh	NS1 function inh	Cruzain inh noDet	StopGo reporter	Lassa entry inh	RE007 growth inh
CCc1cccc(C)c1NC(=O)c1cnn(-c2ccc(F)cc2)c1-n1cccc1	-5.0%	·	·	·	-15%	-27%	-1%[46.1 µM]	·
COc1cc2c(=O)n(CCC(=O)NCC3CCCO3)c(=O)n(CC(=O)Nc3ccc(C)cc3)c2cc1OC (stereo not given)	0.6%	2%	-1%&0%[46.1 µM]	-1%	0%	-6%&-15%	12%&10%[46.1 µM]	14%
COc1ccc(C)cc1NC(=O)CCNC(=O)Cn1cnc2ccccc2c1=O	·	0%	-1%[46.1 µM]	-16%	·	-5%	-9%	3%
CC(C)Nc1nnc(SCC(=O)Nc2ccc3c(c2)C(=O)c2ccccc2C3=O)s1	-8.3%	-15%	?	10%	?	-2%	?	12%
O=c1c(O)c(-c2ccccc2)oc2cc(O)cc(O)c12	-0.5%	-9%	·	·	-1%	7%	·	-9%
Nc1nnc(C(c2ccccc2)c2ccccc2)s1	2.9%	-1%	11%[46.1 µM]	12%	-8%	-26%	27%	8%
COc1cc(NC(=O)COc2cc(O)c3c(c2)OC(C)(C)CC3=O)cc(OC)c1	·	-11%	·	-7%	·	-33%	·	12%
O=C(COC(=O)/C=C/c1cccs1)Nc1nc(-c2ccccc2)cs1	-4.5%	14µM*	?	7%	?	7%	13%	10%
Nn1c(SCC(=O)N2CCCc3ccccc32)nnc1-c1ccc(Cl)cc1	-0.2%	2%	2%[46.1 µM]	11%	-7%	-23%	-7%	-4%
O=C(CCCN1C(=O)c2cccc3cccc(c23)C1=O)N1CCN(c2ncccn2)CC1	·	0%	·	2%	·	-8%	·	18%
COc1cccc(-c2nc(CS(=O)(=O)CC(=O)NCc3ccc4c(c3)OCO4)c(C)o2)c1	·	29%	21%[46.1 µM]	10%	·	-22%	5%[46.1 µM]	2%
COc1ccc(CCNS(=O)(=O)c2cccc([N+](=O)[O-])c2)cc1OC	·	-7%	3%	-9%	·	-25%	11%	6%
CC(/C=N/Nc1nc2ccccc2[nH]1)=C\c1ccccc1	-26%	5%	7.3µM*	-6%	-5%	3%	?	-9%
Oc1cccc2ccc(/C=C/c3c(F)cccc3Cl)nc12	·	3%	?	-1%	·	15%	18µM*	-24%
O=C(CNC(=O)c1cccc(F)c1)N/N=C/c1cccc([N+](=O)[O-])c1	-6.7%	16%	-1%	12%	-1%	14%	-1%	-17%
COc1ccccc1C(=O)C1CCCN(C(=O)C2CCCC2)C1 (stereo not given)	·	0%	·	-2%	·	-10%	·	?
NC(=O)C(Cc1ccccc1)NS(=O)(=O)c1ccc(N2CCCC2=O)cc1 (stereo not given)	-8.7%	2%	14%	-3%	-3%	·	4%	-9%
CC(C)C(=O)Nc1cccc(C(=O)N2CCCCC2C)c1 (stereo not given)	4.8%	13%	6%	-2%	8%	-10%	3%	0%
Nc1ccc(C(=O)N/N=C2/CN3CCC2CC3)cc1	4.7%	3%	3%	5%	-9%	·	1%	-1%
CCOC(=O)c1ccc(NS(=O)(=O)c2ccc3c(c2)NC(=O)CCS3)cc1	·	-5%	·	-1%	·	-15%	·	-7%
COc1ccccc1C(=O)NC(=O)COC(=O)c1ncc(Cl)c(Cl)c1Cl	·	1%	3%	·	·	3%	-1%	11%
Cc1ccccc1NC(=O)c1c2c(nc3ccccc13)C(=O)N(C1CCCCC1)C2	-1.9%	·	·	·	-7%	-23%	-4%[46.1 µM]	·
CCCN(CCC)C(=S)Nc1cc(C(=O)OC)ccc1C(=O)OC	-3.3%	-13%	4%	-17%	-6%	-22%	-21%	-7%
COC(=O)/C(=N/Nc1ccccc1C)N1CCCc2ccccc21	-7.1%	12%	?	4%	-3%	-25%	14%	20%
CC(=O)Nc1ccc(S(=O)(=O)NNC(=O)C(=O)NNc2ccccn2)cc1	·	-2%	4%	-6%	·	-1%	·	2%
CCc1cc2c(cc3c(=O)n(CCCC(=O)NCc4cccc(Br)c4)ncn32)s1	-1.2%	·	0%[46.1 µM]	·	-1%	-28%	·	·
[N-]=C=C1C(=O)NC(=O)C([n+]2ccc(-c3ccncc3)cc2)C1c1ccccc1C(F)(F)F (stereo not given)	·	1%	-12%[46.1 µM]	2%	·	1%	19%	-1%
CSCCC(=O)Nc1ccc(C(C)=O)cc1	-1.8%	-1%	?	0%	-6%	·	7%	1%
S=C(NC1CCCCC1)N1CCn2cccc2C1c1ccncc1 (stereo not given)	·	0%	4%[46.1 µM]	·	·	-15%	6%	4%
COc1ccc(S(=O)(=O)N2CCC(N3CCCCC3)CC2)cc1	7.0%	15%	-5%&-5%[46.1 µM]	1.1µM*	-4%	-2%	22%	5%
Cc1cc(C)cc(NC(=O)C2CCN(c3nc4ccccc4nc3C(F)(F)F)CC2)c1	1.7%	·	·	·	-1%	-12%	-2%[46.1 µM]	·
O=C(C1CC1)N1CCC(c2nc(-c3ccc(S(=O)(=O)NCC4CCCO4)cc3)no2)CC1 (stereo not given)	-1.0%	-3%	?	-5%	24%	?	?	15%
O=C(CCN1C(=O)/C(=C\c2cccs2)SC1=S)Nc1ccccn1	·	0%	-42%[46.1 µM]	-10%	·	-7%	-22%	-9%
O=C(O)CCC(=O)Nc1cccc(-c2nc3ccccc3o2)c1	·	3%	?	8%	·	30%[activator]	-3%	3%
COc1ccc(-c2cc(=O)c3c(O)c(OC)c(OC)c(OC)c3o2)cc1	-1.1%	·	0%	·	-6%	20%&9%	-3%[46.1 µM]	-6%
CC12CCC3C(=CCc4cc(O)ccc43)C1CC(=NO)C2O (stereo not given)	·	·	?	·	·	-6%	21%	-2%
Cc1cccc(NC(=O)c2c(C)cc(C)nc2SCC(=O)c2ccccc2)c1	-4.6%	·	?	·	2%	7%	6%[46.1 µM]	·
CC(=O)Nc1ccc(N2C(=O)CSC2c2ccccc2[N+](=O)[O-])cc1 (stereo not given)	·	9%	2%	·	·	-11%	8%	15%
Cc1ccc(S(=O)(=O)/N=C2/C=C(Sc3ncn[nH]3)C(=O)c3ccccc32)c(C)c1	-9.8%	-78%	?	-24%	?	·	4.1µM*	·
CCCn1nc(NS(=O)(=O)c2cccc3nonc23)c2cc3cc(C)ccc3nc21	·	9%	5%[46.1 µM]	-7%	·	8%	-14%[46.1 µM]	18%
O=C(COc1ccc([N+](=O)[O-])cc1)NNC(=O)Nc1ccc([N+](=O)[O-])cc1	·	?	·	-14%	·	-14%	·	22%
Cc1ccc(NC(=O)c2cc(S(=O)(=O)N3CCc4ccccc43)cn2C)cc1	·	2%	·	8%	·	?	·	9%
CC1CCN(CC(=O)NCc2ccccc2)CC1	2.3%	1%	15%	2%	-11%	-23%	9%	-8%
COc1cccc(C(=O)NN/C(C)=C/C(=O)C(F)(F)C(F)(F)C(F)(F)F)c1	-4.3%	13%	0%	-36%	-2%	-23%	?	2%
COC(=O)c1cccc(C23CC4(C2)[C@H](CN(Cc2ccc(-c5ccccc5)cc2)[C@@H]4c2ccccc2)C3c2ccc(C(F)(F)F)cc2)c1 (stereo not given in full)	-1.9%	0%	·	18%	25µM*	-1%	·	7%
Cc1ccc(C(=O)COc2cc(O)c3c(=O)cc(-c4ccccc4)oc3c2)cc1	·	-2%	·	20%	·	?	·	-8%
CCOc1ccc(Cl)cc1CNc1nnnn1CC	·	2%	·	7%	·	33%[activator]	·	5%
CC(C)C(C)NC(=O)COc1nc2ccccc2nc1N(C)C1CCCCC1 (stereo not given)	·	2%	9%[46.1 µM]	17%	·	-7%	5%[46.1 µM]	11%
N=c1c(S(=O)(=O)c2ccc(Cl)cc2)cc2c(=O)n3ccccc3nc2n1CC1CCCO1 (stereo not given)	·	-1%	·	9%	·	-10%	·	-8%
N#Cc1ccc(Oc2cccc3cccnc23)c([N+](=O)[O-])c1	·	-1%	-13%[46.1 µM]	2%	·	-10%	?	-4%

Other structures follow:
SMILES	Cruzain Triton	SARS PLP yeast	Marburg entry inh	NS1 function inh	Cruzain inh noDet	StopGo reporter	Lassa entry inh	RE007 growth inh
OCCN1CCN(C(=S)Nc2ccc(SC(F)F)cc2)CC1	·	1%	-14%[46.1 µM]	·	·	0%	16%	-2%
CCc1cc2c(N[C@@H](Cc3ccccc3)C(=O)O)ncnc2s1	·	1%	-20%	-1%	·	-5%	?	-15%
CCn1nnnc1SCC(=O)c1ccc(C)cc1C	-4.7%	10%	?	10%[9.22 µM]	-12%	1%	?	-5%
Cn1nc(-c2ccc(C(=O)Nc3cccc(C(F)(F)F)c3)cc2)c2ccccc2c1=O	-2.8%	·	?	·	-2%	22µM*	4%[46.1 µM]	·
NC(=O)C1CC(=O)N(c2ccc(OCc3ccc([N+](=O)[O-])cc3)cc2)C1 (stereo not given)	·	6%	7%	-14%	·	19%	?	6%
O=C(c1ccoc1)N1CCCC(N2CCN(c3cccc(C(F)(F)F)c3)CC2)C1 (stereo not given)	·	4%	-28%	-9%	·	?	?	-21%
COc1ccc(-c2noc(N3CCC(C(=O)N4CCN(c5ccccc5OC)CC4)CC3)n2)cc1	-3.6%	·	·	·	?	0%	?	·
Cc1nnc2sc(SCC(=O)Nc3ccc(Br)cc3)nn2c1=O	·	0%	-1%[46.1 µM]	4%	·	1%	8%	2%
COc1cccc(Oc2ccc(C(F)(F)F)cc2NC(=O)c2cccc(F)c2)c1	-9.2%	-26%	?	-36%	-7%	-21%	-12%	-19%
Cn1ncc(Cl)c1C(=O)NCc1ccco1	·	-1%	23%[46.1 µM]	1%	·	-4%	3%[46.1 µM]	11%
O=C(O)c1ccc(N=Cc2c(O)ccc3oc4c(c23)CCCC4)cc1	·	-2%	·	-52%	·	-27%	·	-11%
CCOC(=O)c1c(S(=O)(=O)N2CCC(C(=O)Nc3ncccc3C)CC2)c(C)n(C)c1C	1.6%	·	·	·	5%	-6%	6%[46.1 µM]	·
CCOC(=O)c1cc(-c2cccc([N+](=O)[O-])c2)n[nH]1	·	-1%	-2%[46.1 µM]	-2%	·	25%	-4%	-8%

From PubChem BioAssay
